hNpr1 antagonist = blocks ANP-stimulated signaling of human Npr1 receptor; HEK293 hNpr1 GloSensor cGMP, ANP-stimulated luminescence; P16066; Potency, µM (titrated, usually from 46.3 µM), for the others: top-dose activity change, negative = inhibition, usual class: inhibitors; 76,000 tested, 1.6% active; AID 1347048; active = well fitted inhibition curve with a large enough effect; inconclusive = small, poorly fitted or top-dose-only effect; inactive = no such curve, though single readings can be large or run the other way;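 note: nearly all actives have a fitted effect of over 60% in size; nearly all hits also lower the signal before the agonist is added; a reference antagonist and vehicle were the controls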
Target sequence (P16066 whole entry, looked up): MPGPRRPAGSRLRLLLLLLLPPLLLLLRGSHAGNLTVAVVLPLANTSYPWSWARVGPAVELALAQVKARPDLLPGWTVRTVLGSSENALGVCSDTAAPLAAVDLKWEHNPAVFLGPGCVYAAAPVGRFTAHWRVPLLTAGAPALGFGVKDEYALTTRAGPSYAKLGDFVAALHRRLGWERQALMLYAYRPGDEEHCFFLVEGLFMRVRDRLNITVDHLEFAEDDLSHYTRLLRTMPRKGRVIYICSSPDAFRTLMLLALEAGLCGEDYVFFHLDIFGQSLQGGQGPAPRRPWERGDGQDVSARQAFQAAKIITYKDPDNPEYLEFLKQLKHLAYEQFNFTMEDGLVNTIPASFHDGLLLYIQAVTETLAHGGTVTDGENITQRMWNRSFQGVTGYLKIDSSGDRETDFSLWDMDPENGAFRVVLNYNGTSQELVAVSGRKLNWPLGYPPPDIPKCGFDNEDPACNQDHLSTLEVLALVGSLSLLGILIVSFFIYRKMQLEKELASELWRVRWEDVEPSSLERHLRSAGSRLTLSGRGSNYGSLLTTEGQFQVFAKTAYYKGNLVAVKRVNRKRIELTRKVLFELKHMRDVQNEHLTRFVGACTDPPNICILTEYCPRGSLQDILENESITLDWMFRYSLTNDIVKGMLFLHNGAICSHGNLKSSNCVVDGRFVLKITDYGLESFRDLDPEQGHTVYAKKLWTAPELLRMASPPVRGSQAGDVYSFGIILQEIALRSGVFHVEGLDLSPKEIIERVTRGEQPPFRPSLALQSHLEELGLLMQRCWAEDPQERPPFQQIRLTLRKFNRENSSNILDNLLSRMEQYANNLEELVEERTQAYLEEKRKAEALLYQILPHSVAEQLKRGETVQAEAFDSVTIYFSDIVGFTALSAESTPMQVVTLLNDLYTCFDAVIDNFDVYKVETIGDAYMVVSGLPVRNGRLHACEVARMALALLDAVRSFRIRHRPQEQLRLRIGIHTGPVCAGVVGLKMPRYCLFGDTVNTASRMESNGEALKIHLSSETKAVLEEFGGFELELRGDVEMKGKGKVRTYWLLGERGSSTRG
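HEK293 cells stably expressing human Npr1 and cGMP GloSensor pGS-40F, loaded 2 h with 2% GloSensor reagent, given compound 30 min at room temperature. Luminescence read before and 20 min after 0.1 nM hNppA.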
An asterisk follows results filed as active; u = inconclusive; [ ] = remark or other dose. % is set by controls: 0 for no effect and ±100 for the full control effect; potency is the fitted concentration of half-maximal effect. Not all compounds are listed, so the mix of outcomes need not match the whole.

compound	hNpr1 antagonist
COc1ccc(C2Cn3cnc(C(=O)N4CCC(C(=O)NCc5cccc(F)c5)CC4)c3CO2)cc1 (stereo unspecified)	2%
COc1ccccc1N1CCN(CC[C@@H]2CC[C@H](O)[C@@H](C(=O)NC3CCCCC3)O2)CC1	-1%
Cc1ccc(C(C(=O)NCc2ccc(O)cc2)N(C)C)cc1 (stereo unspecified)	-3%
O=C1CC(c2ccccc2)N(C(=O)C2CC2)CCCN(C(=O)NCc2ccc(F)cc2)CCN1 (stereo unspecified)	-1%
O=C(O)C1c2nc[nH]c2CCN1C(=O)CCN1CCCCC1 (stereo unspecified)	2%
O=C(O)C[C@@H]1CCN(C(=O)Nc2ccccc2)C[C@@H]1CCN1CCN(c2ccc(F)cc2)CC1	2%
CC(C)NC(=O)N1CCNc2cnc(Nc3cccc(F)c3)nc2C1	u
C[C@@H](NC(=O)C[C@@H]1c2nc(NC(=O)c3ccco3)sc2C[C@@H]2[C@](C)(CO)[C@H](O)CC[C@]21C)c1ccccc1	-1%
O=C(Nc1ccc(F)cc1)N1CC[C@H]2CC(=O)N(c3ccccc3)CC[C@H]2C1	-1%[70.6 µM]
O=C(c1ccco1)N1CCC(F)(c2nc(-c3ccncc3)no2)CC1	-22%
COc1cccc(-c2ccnc3nc(C4CCC4)nn23)c1	-11%
Cc1cc(C(=O)N2CCOC[C@H](Oc3ccc(S(C)(=O)=O)cc3)C2)n(C)n1	-1%[70.6 µM]
Cc1cccc(C(=O)N2CC(c3noc(C4CCCN4CC4CC4)n3)C2)c1 (stereo unspecified)	-2%
CCN(CC)C(=O)CC[C@@H]1CNC(=O)[C@@H]2C[C@H](NC(=O)Nc3cccc(Cl)c3)CN12	-2%
COc1ccc(C(=O)N2CCCC(c3nc(-c4cccnc4)no3)CCNC(=O)CC2)c(OC)c1 (stereo unspecified)	-5%
COc1cc(CN2C[C@@H]3C(=O)N(CCCN4CCCC4=O)C(=O)[C@@H]3C2)cc(OC)c1OC	-10%
O=C(CCc1ccccc1)N1CCCc2ncc(C(=O)N3CCCC[C@@H]3Cc3ccccc3)cc21	0%
CC(C)(CC(=O)O)CC(=O)N[C@H]1C[C@H]2C(=O)Nc3ccc(-c4cccs4)cc3C(=O)N2C1	3%
CO[C@H]1[C@H](NC(=O)CCc2cccnc2)c2ccccc2C12CCNCC2	3%
COCCNC(=O)[C@@H]1CCC[C@@H](NCc2ccc(F)cc2)CN(C)C(=O)C1	-3%[70.6 µM]
O=C(c1ccoc1)N1CCC(n2cc(-c3nc(-c4ccccc4)no3)nn2)C1 (stereo unspecified)	u
CCc1nn(-c2ccc(OC)cc2)c(Oc2ccccc2F)c1CCC(=O)N(CC)CC	-16%
CCc1nc2c(c(-c3ccc(Cl)cc3)n1)CCN(Cc1ccc(NC(C)=O)cc1)CC2	-11%
CN(Cc1ccccc1C(F)(F)F)C(=O)c1ccccc1	23%[70.6 µM]
O=C(Nc1ccon1)c1cnc2n[nH]c(-c3ccccc3)c2n1	-5%[70.6 µM]
Cc1ccc(S(=O)(=O)N2c3ccccc3CC2c2nnc(C3CCOCC3)o2)cc1F (stereo unspecified)	-8%
CN(Cc1ccc(F)cc1)c1ccc2ncc(Nc3ccc4c(c3)OCCO4)n2n1	-19%[70.6 µM]
Cc1nc([C@@H]2CN(C(=O)CCCc3nc4ccccc4[nH]3)C[C@H]2C(N)=O)n[nH]1	-1%
COCCN1C(=O)[C@H]2CN(Cc3cc(OC)c(OC)c(OC)c3)C[C@H]2C1=O	2%
O=C(O)c1cccc(C(=O)N2C[C@@H]3C[C@H](C2)c2ccc(NC(=O)c4ccco4)c(=O)n2C3)c1	5%
O=C(Cc1cccc(Cl)c1)N1C[C@@H](CO)[C@H](c2ccccn2)C1	1%
Cc1cc(C)n(-c2cccc(CN(C)Cc3nc(-c4ccccn4)no3)c2)n1	1%
O=C(NC1CCN(c2cc(-c3cccs3)[nH]n2)CC1)c1ccc(F)c(Cl)c1	-25%
CCOc1ccc(CC(=O)N2C[C@@H](COC)[C@H](c3ccncc3)C2)cc1	-12%
Cc1cccc(NC(=O)Cn2ccn3nc4c(c3c2=O)CCCCC4)c1C	4%
CC(c1cccc(-c2cccc(C(=O)N(C)C)n2)c1)N1CCCC1 (stereo unspecified)	2%
FC(F)(F)c1cccc(Nc2cnc3ccc(N4CCOCC4)nn23)c1	u
O=S(=O)(NCC1CCOCC1)c1ccccc1F	5%
O=C1CC(c2ccccc2)N(C(=O)Cc2cccc(F)c2)CCCCCCN1 (stereo unspecified)	-1%
CCn1nccc1C(=O)N1CC(n2cc(C(=O)NCC3CC3)nn2)C1	1%
COCc1nc(C2CCCN(C(=O)NCc3ccccc3)C2)no1 (stereo unspecified)	-2%
COc1ccc(-c2noc([C@@H]3CCCN3C(=O)COc3ccc(Cl)cc3)n2)cc1	-16%
COc1ccc(CC(=O)NC(C)C(=O)N2CCN(c3ccccn3)CC2)c(Cl)c1 (stereo unspecified)	-2%
O=C(c1cccc(F)c1)N1C[C@@H](CO)[C@H](c2ccncc2)C1	0%
COc1ccc(-c2noc(CC3CCN(C(=O)c4ccccc4C)CC3)n2)cc1	10µM*
O=C(c1cc(-c2ccc(F)cc2)n[nH]1)N1CC2CC(C1)[C@H]1CCCC(=O)N1C2 (stereo partly specified)	-3%
COC(=O)[C@@H]1Cc2ncn(C)c2CN1C(=O)CC(C)(C)CC(=O)O	3%[70.6 µM]
CC(C)CN1CCOC[C@H](Oc2ccc(S(C)(=O)=O)cc2)C1	0%[70.6 µM]
COc1cccc(C(=O)N2CCC3(CC2)NC(=O)N(c2ccc(F)cc2)N3)c1OC	-4%
COc1ccc(CN2C[C@@H](CO)[C@H](c3ccncc3)C2)cc1	3%
CC(C)OCCCNC(=O)Cn1nc2c(cc1=O)CCCC2	5%
CCCCc1nn(CC(=O)N2C[C@H]3CC=C(C)C[C@H]3C2)c(=O)n1CC	-5%
O=C(COc1ccccc1)N1CCCC(c2noc(COc3ccccc3)n2)C1 (stereo unspecified)	-2%
Cc1ncc(CN2CCC3(CC2)CCN(Cc2ccoc2)CC3CO)n1C (stereo unspecified)	10%
O=C(COc1ccccc1)N1CCC2(CCC(=O)N(Cc3ccccc3)CC2)CC1	-3%
Cc1ccc(-c2nnc(C3CN(C(=O)c4cccc(Cl)c4)CC34CCOCC4)o2)cc1 (stereo unspecified)	-2%
COc1cc(CCC(=O)N2CC(c3noc(C4CCCN4C(C)=O)n3)C2)on1 (stereo unspecified)	5%
CC(C)c1ccc(NC(=O)O[C@@H]2CO[C@H]3[C@@H]2OC[C@@H]3NC(=O)c2ccccc2)cc1	-1%[70.6 µM]
COc1ccc(C(=O)N2[C@@H]3CC[C@H]2CC(NC(=O)c2cnc(C)cn2)C3)c(OC)c1 (stereo partly specified)	3%
CC(C)c1nncn1C1CCN(S(=O)(=O)c2ccccc2)CC1	-8%

Going on with the list.
compound	hNpr1 antagonist
CC(C)(C)CC(=O)Nc1nc2c(s1)C[C@@H]1[C@](C)(CO)[C@H](O)CC[C@@]1(C)[C@@H]2CC(=O)NC1CCCC1	0%
CN1CC2(CCCN(Cc3ccccc3OCC(=O)O)C2)OC1=O (stereo unspecified)	6%
O=C(NC[C@H]1O[C@@H](CO)[C@@H](O)[C@H]1N1CCCC1)c1ccc(F)c(Cl)c1	2%[70.6 µM]
O=C1CCN(S(=O)(=O)c2ccccc2)CCCN(C(=O)Cc2c[nH]c3ccccc23)CCN1	2%
O=C(CSc1ccc(Cl)cc1)N[C@H]1CCOC[C@H]1C1CCOCC1	5%
O=C(c1cccc(-n2cnnc2)c1)N1CCCC(O)(CN2CCCC2)C1 (stereo unspecified)	4%
Cc1ccc(-n2nc(C)c([C@H]3C=C[C@@H](OC(=O)Nc4ccc(C(C)C)cc4)C3)c2C)cc1Cl	-12%
COc1cccc(CNC(=O)CN2C(=O)NC3(CCCCC3)C2=O)c1OC	5%
Cc1cccc(NC(=O)NC2CCN(C(=O)N3CC4CC(C3)[C@H]3CCCC(=O)N3C4)CC2)c1 (stereo partly specified)	1%
CCOC(=O)c1cn(C2CN(S(=O)(=O)c3cccc(Br)c3)C2)nn1	2%
CCc1ccc(CNC(=O)c2ccc3c(c2)N(C)C2CCCCN2C3=O)cc1 (stereo unspecified)	-3%
CCCCCC(=O)Nc1nc2c(s1)C[C@@H]1[C@](C)(CO)[C@H](O)CC[C@@]1(C)[C@@H]2CC(=O)NCc1ccccc1	2%
O=C(CCc1ccccc1)N1CCC(c2nc(C3CCOCC3)no2)C1 (stereo unspecified)	-18%
CCOC(=O)c1oc2ccc(S(=O)(=O)N3CCc4nnc(C5CC5)n4CC3)cc2c1C	5%
COc1ccc(CNC(=O)CC[C@H]2CNC(=O)[C@@H]3[C@@H](CCN3Cc3ccc(F)cc3)N2C)cc1	11%
CC1(C(=O)Nc2ccc(C(N)=O)cc2)CCCc2cnc(Nc3ccccc3)nc21 (stereo unspecified)	-10%[70.6 µM]
O=C(CCC1CCN(c2cc(NC3CC3)ncn2)CC1)NCCN1CCCCC1	2%
O=C(N[C@@H]1CCOC[C@H]1OCc1ccccn1)c1cccc(-n2cnnc2)c1	-1%
CC(C)CNC(=O)N1CCC(Oc2ncccc2C(=O)N2CCOCC2)C1 (stereo unspecified)	1%
Cc1ccc(CNC(=O)N2CC(n3cc(C(=O)NCC4CC4)nn3)C2)cc1	4%
COc1ccc(-n2nc(C3CCN(Cc4cccnc4)CC3)[nH]c2=O)cc1	17%
CN(C)c1ccc(C(=O)N[C@H]2CO[C@H]3[C@@H]2OC[C@@H]3n2cc(COc3ccccc3)nn2)cc1	1%
CCOc1ccccc1C(=O)N1CCC(Oc2ccc(C(=O)N(C)C)cn2)CC1	3%
CC(C)C(=O)Nc1ccc2c(c1)CN(CCc1ccc(F)cc1)C(=O)C(C)O2 (stereo unspecified)	-4%
CCC1=C(C(=O)OC)C(c2ccccc2)N2C(CC(=O)NCCCN3CCCC3=O)=CSC2=N1 (stereo unspecified)	-1%
CC(C)CNC(=O)c1cc(-c2ccccc2F)cc2c1OCCN2Cc1cccnc1	-24%[70.6 µM]
O=C(NCc1ccccc1)c1c(OCC2CC2)cc(=O)n2c1CCOCC2	-7%
O=C(c1ccc(N2CCCC(CO)C2)nc1)N1CCC(N2CCOCC2)CC1 (stereo unspecified)	-1%
Cc1ccc(C(=O)N2CC(F)(F)C[C@H]2c2nc(C3CC3)no2)nc1	-2%
CC(C(=O)NCC1CC1)N1C(=O)COc2ccc(C(=O)COc3cccc(Cl)c3)cc21 (stereo unspecified)	3%
CC1=C[C@@H](CNC(=O)CC2(CC(=O)O)CCCC2)[C@H](C(C)C)C[C@H]1Cc1nc2c(C)cccc2[nH]1	-7%
CNC(=O)c1noc([C@@H]2CC(F)(F)CN2C(=O)Cc2ccccc2)n1	1%
Cc1cc(F)ccc1CC(=O)N1CC[C@H](N(C)C)[C@H](CCC(=O)O)C1	1%
Cc1ccc(-c2cn3c(n2)CO[C@@H](CNC2CCCC2)C3)cc1	3%[70.6 µM]
CNC(=O)[C@@H]1C[C@@H](n2cc(CNC(=O)Nc3ccc(Cl)cc3)nn2)CN1	-2%
CC(=O)Nc1cc(-c2cc(C(=O)NCc3cc(C)on3)c3c(c2)N(C)CCO3)ccn1	-4%[70.6 µM]
COc1ccc(S(=O)(=O)N2CCc3c(C(=O)NC4CCCC4)cccc32)cc1	u
N[C@@H]1CC[C@H](C(=O)N2CCC(c3nccn3Cc3ccncc3)CC2)C1	8%
O=C(CCC1CCN(C(=O)c2ccccn2)CC1)N1CCC(Cc2ccccc2)CC1	-17%
CN(CC1CCOCC1)S(=O)(=O)c1cccc(F)c1	7%
C[C@H]1[C@@H]2[C@@H](O)C([C@H](C)C(=O)NCCN3CCCC3)CC[C@@]2(C)CC[C@@H]1NC(=O)CC(C)(C)C (stereo partly specified)	-1%
CCOc1cccc(-c2noc(-c3nnn4c3COC(c3cccc(OC)c3)C4)n2)c1 (stereo unspecified)	-9%
CCC[C@@H]1CN(C(=O)c2cc(-c3cccs3)n(C)n2)C[C@H]1N(C)C	1%
O=C(c1cccs1)N1CCC(Oc2cccnc2)C1 (stereo unspecified)	-9%
Cc1ccccc1[C@H]1C[C@@H](O)[C@@H](O)[C@@H]1NC(=O)C(C)C	-1%[70.6 µM]
C1CC(c2noc(C34CC5CC(CC(C5)C3)C4)n2)CO1 (stereo unspecified)	2%

Ordered by number of heavy atoms (smallest number first): some entries from above.
compound	hNpr1 antagonist
CN(CC1CCOCC1)S(=O)(=O)c1cccc(F)c1	7%
COCc1nc(C2CCCN(C(=O)NCc3ccccc3)C2)no1 (stereo unspecified)	-2%
O=C(NC[C@H]1O[C@@H](CO)[C@@H](O)[C@H]1N1CCCC1)c1ccc(F)c(Cl)c1	2%[70.6 µM]
CC(C)CNC(=O)N1CCC(Oc2ncccc2C(=O)N2CCOCC2)C1 (stereo unspecified)	1%
O=C(COc1ccccc1)N1CCC2(CCC(=O)N(Cc3ccccc3)CC2)CC1	-3%
CC(C(=O)NCC1CC1)N1C(=O)COc2ccc(C(=O)COc3cccc(Cl)c3)cc21 (stereo unspecified)	3%

Source: PubChem BioAssay (National Center for Advancing Translational Sciences (NCATS))
